# rRNA inh HTS = selective bacterial rRNA inhibition in E. coli. GFP signal change (wild-type ribosome), % (no concentration beside the values). E. coli WT GFP vs humanized-ribosome RFP mutants, fluorescence, 24 h; stronger effect = lower value; DMSO median 0, no signal -100. 350,000 compounds, 1.6% hits;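 active = significant combined selectivity score with lowered wild-type GFP, culture density cut under 30%, mutant RFP and density less affected; inactive = any of these conditions unmet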; note: one replicate is shown; some compounds called inactive have numbers as strong as hits
# FGF22 binding = binders of recombinant human FGF22 by thermal shift. Q9HCT0. SYPRO orange fluorescence; percent of sucrose octasulfate shift, DMSO zero. calls only at 9.99 µM. 340,000 compounds, 1.5% hits. AID 651658;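 active = melting point raised past a set limit in the mean and every replicate; inconclusive = no clear call; three in four hits are not shown here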
# Target sequence (Q9HCT0 whole entry, looked up): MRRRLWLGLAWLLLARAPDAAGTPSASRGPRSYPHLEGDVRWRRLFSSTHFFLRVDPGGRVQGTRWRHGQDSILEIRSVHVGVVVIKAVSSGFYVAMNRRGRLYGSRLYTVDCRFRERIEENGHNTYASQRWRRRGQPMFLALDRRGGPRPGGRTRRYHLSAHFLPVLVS
# AF4-AF9 inh = inhibitors of human MLL-AF4/AF9 interaction; 350,000 compounds, 0.47% hits; inhibition, % at 10 µM; AlphaScreen, biotin-AF4 peptide binding to FLAG-AF9;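 active = every replicate reaching a set inhibition limit, whatever the replicate mean, cut at about 25% in these data; inconclusive = mean inhibition reaches that limit but some replicates miss it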;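 note: 0% = plate neutral control median and 100% = total signal loss; the record names both 10 and 1 µM as test concentration; the first replicate is given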
# Target sequence (P42568 whole entry, looked up): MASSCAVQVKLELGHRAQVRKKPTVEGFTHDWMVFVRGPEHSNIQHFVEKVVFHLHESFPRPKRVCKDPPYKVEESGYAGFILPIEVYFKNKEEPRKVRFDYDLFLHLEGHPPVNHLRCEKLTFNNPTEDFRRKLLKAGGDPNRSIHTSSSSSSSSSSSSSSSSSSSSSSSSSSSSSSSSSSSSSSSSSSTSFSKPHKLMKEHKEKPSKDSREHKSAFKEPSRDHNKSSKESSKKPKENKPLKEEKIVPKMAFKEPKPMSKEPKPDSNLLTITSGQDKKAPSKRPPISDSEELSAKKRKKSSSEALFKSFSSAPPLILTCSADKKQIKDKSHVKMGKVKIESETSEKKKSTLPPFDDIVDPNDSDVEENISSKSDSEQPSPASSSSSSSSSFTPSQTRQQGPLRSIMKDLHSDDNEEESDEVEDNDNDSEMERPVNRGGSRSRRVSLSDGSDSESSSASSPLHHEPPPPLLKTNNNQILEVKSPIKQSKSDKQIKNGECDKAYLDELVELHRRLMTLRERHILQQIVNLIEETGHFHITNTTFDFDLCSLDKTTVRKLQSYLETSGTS
# rRNA inh HTS OD600 = also measured in rRNA inh HTS; calls as there; OD600 change, %; measured here: OD600 growth;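 optical density of the mix in the first replicate; 0 = DMSO median and -100 = no signal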
# rRNA inh HTS RFP = second read-out of rRNA inh HTS, no call of its own (marks repeat the call); RFP signal change, %; measured here: RFP humanized mutant strains;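 first replicate; 0 = DMSO median and -100 = no signal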
# An asterisk follows results filed as active; i = inactive; ? = inconclusive; · = not tested or not shown; & = joins results of further samples.
rRNA inh HTS | mol | rRNA inh HTS OD600 | rRNA inh HTS RFP | FGF22 binding | AF4-AF9 inh
-1 | C[C@@H]1CN([C@H](C)CO)C(=O)c2cc(NS(=O)(=O)c3cccs3)ccc2O[C@@H]1CN(C)S(C)(=O)=O | 5 | -2.6 | i | -0.8
3 | C[C@H]1CN([C@@H](C)CO)C(=O)c2cc(C#CC3CC3)cnc2O[C@@H]1CN(C)Cc1cccc(C(=O)O)c1 | 8 | 0.3 | i | 2.5
2 | Cc1noc(C)c1NC(=O)N(C)C[C@@H]1Oc2ccc(NS(=O)(=O)c3ccccc3)cc2C(=O)N([C@@H](C)CO)C[C@@H]1C | 5 | -0.4 | i | -2.7
-5 | C[C@@H]1CN([C@@H](C)CO)C(=O)c2cc(-c3cccnc3)cnc2O[C@@H]1CN(C)Cc1ccc(-c2ccccc2)cc1 | -15 | 3.5 | i | 3.7
-2 | COc1cccc(-c2ccc([C@@H]3[C@H](CO)N4CCCCN(CC5CC5)C[C@@H]34)cc2)c1 | 0 | -3.0 | i | 6.4
7 | CCCCn1nc(C(=O)N(CC(C)C)c2c(N)n(CCCC)c(=O)[nH]c2=O)c2ccccc2c1=O | 4 | 2.5 | i | 0.4
0 | C[C@H]1CN([C@@H](C)CO)S(=O)(=O)c2ccc(Br)cc2O[C@H]1CN(C)Cc1cncnc1 | 10 | -2.0 | i | -0.8
1 | COc1ccc2c3c([nH]c2c1)[C@@H](CO)N(C)CC31CCN(S(=O)(=O)c2cccc(F)c2)CC1 | -24 | 1.7 | i | -1.6
0 | COc1ccc(NC(=O)Nc2ccc3c(c2)C(=O)N([C@H](C)CO)C[C@H](C)[C@@H](CN(C)C(=O)NC(C)C)OCCCC[C@H](C)O3)cc1 | -2 | 0.0 | i | 1.3
-56 | CCc1c(-c2cccc(F)c2)ncn1CCc1ccccc1OC | -78 | -16 | i | 5.8
0 | O=C(C[C@H]1C[C@H]2c3cc(NC(=O)C4CCC4)ccc3O[C@H]2[C@H](CO)O1)NCc1cc(F)ccc1F | 4 | 1.0 | i | -0.8
0 | CCCNC(=O)C[C@H]1CC[C@H]2[C@H](COc3ccc(NC(=O)Nc4cccc(C)c4)cc3C(=O)N2C)O1 | -13 | -0.7 | i | 1.7
-2 | O=C(N[C@@H]1CC[C@H](CCn2cc(C3(O)CCCC3)nn2)O[C@@H]1CO)c1ccccc1F | -5 | -1.0 | i | 0.7
-62 | O=C(c1ccc(O)c(Br)c1)c1cc(Br)ccc1O | -78 | -19 | i | -0.7
1 | CCC(=O)Nc1ccc2c(c1)C(=O)N(C)[C@H]1CC[C@@H](CC(=O)NCCN3CCCCC3)O[C@H]1CO2 | 3 | -0.8 | i | 0.3
-1 | C[C@H](CO)N1C[C@H](C)[C@H](CN(C)C)Oc2cc(C#Cc3ccccc3F)ccc2S1(=O)=O | 3 | 4.4 | i | 12
-13 | CCOC(=O)N1CCN(C(=O)C[C@@H]2C[C@@]3(C(=O)OC)CCCCC=C3N(Cc3ccc4c(c3)OCO4)C2=O)CC1 | -17 | 5.7 | i | 2.7
1 | CCC(=O)N1C[C@@H]2[C@H](c3ccccc31)[C@@H](CO)N2Cc1ccccc1F | 9 | -1.7 | i | -2.1
5 | CC[C@]12c3[nH]c4ccc(Cl)cc4c3CCN1C(=O)[C@@H](CC(=O)NCCCN(C)C)C[C@@H]2C(=O)N1CCN(C(=O)C2CC2)CC1 | 9 | -11 | i | -2.8
-3 | C[C@@H]1CN([C@@H](C)CO)C(=O)c2cccc(NC(=O)Nc3ccc4c(c3)OCO4)c2O[C@@H]1CN(C)Cc1ccc(Cl)c(Cl)c1 | -12 | 3.3 | i | 8.1
4 | C[C@H]1CN([C@@H](C)CO)C(=O)c2cc(-c3cncnc3)cnc2O[C@H]1CN(C)Cc1ccc(F)cc1 | -4 | -2.7 | i | -2.0
0 | CN(C)C(=O)C[C@@H]1CC[C@H]2[C@H](COc3ccc(NS(=O)(=O)c4cccc(F)c4)cc3C(=O)N2C)O1 | 3 | -1.5 | i | -1.1
0 | CNC[C@@H]1Oc2c(NC(=O)c3ccc(-c4nccs4)cc3)cccc2C(=O)N([C@H](C)CO)C[C@H]1C | 3 | 0.0 | i | -0.8
-6 | COc1ccc(S(=O)(=O)N(C)C[C@H]2OCCCC[C@H](C)Oc3ccc(NS(C)(=O)=O)cc3C(=O)N([C@H](C)CO)C[C@H]2C)cc1 | -5 | 2.7 | i | 0.2
3 | C[C@H](CO)N1C[C@H](C)[C@H](CN(C)Cc2ccccc2)Oc2ccc(NC(=O)CCCCCC(=O)Nc3ccccc3N)cc2C1=O | -2 | -0.7 | i | -0.4
2 | Cc1cc(C(=O)CN2C(=O)C(=O)N(C3CCCC3)C2=O)c(C)n1CCc1ccc(F)cc1 | 5 | 14 | i | -5.9
0 | CO[C@H]1CN(C)C(=O)c2cc(NS(=O)(=O)c3ccccc3)ccc2OC[C@@H](C)N(Cc2cccnc2)C[C@H]1C | 1 | 0.1 | i | 0.5
2 | CC(O)(c1ccc(Cl)cc1)C(c1ccccc1)c1ccccn1 (configuration not stated) | -36 | -3.8 | i | 0.6
-29* | O=S1(=O)CC(N2CCN(Cc3ccccc3F)CC2)CN1Cc1cn(Cc2cccc(C(F)(F)F)c2)nn1 (configuration not stated) | -23* | -2.5* | i | -0.5
2 | Cc1noc(C)c1-c1ccc(C(=O)NCC(C)C)c2occc12 | -28 | -3.0 | i | -1.6
-5 | COc1cc(/C=C2\SC(=Nc3c(C)n(C)n(-c4ccccc4)c3=O)NC2=O)ccc1O | 5 | -1.8 | i | 2.7
6 | CCC(=O)N(C)C[C@@H]1Oc2ncc(-c3ccc(C(=O)N(C)C)cc3)cc2C(=O)N([C@H](C)CO)C[C@@H]1C | 8 | -1.7 | i | -0.3
3 | CCN(C(=O)COC(=O)c1ccc(=O)n(Cc2ccccc2)n1)C1CCS(=O)(=O)C1 (configuration not stated) | 8 | -1.8 | i | -7.2
1 | CNC[C@@H]1OCCCC[C@@H](C)Oc2ccc(NC(=O)CCCN(C)C)cc2C(=O)N([C@@H](C)CO)C[C@H]1C | 6 | -0.4 | i | ?
-14 | COc1ccccc1CNC(=O)C[C@H]1CC[C@H]2[C@@H](COC[C@H](O)CN2C(=O)Nc2ccccc2)O1 | -10 | -3.6 | i | -1.1
1 | C[C@H](CO)N1C[C@H](C)[C@@H](CN(C)S(C)(=O)=O)Oc2cc(C#CC3CCCC3)ccc2S1(=O)=O | -26 | 5.7 | i | 4.4
4 | COc1cccc(C#Cc2ccc3c(c2)O[C@H](CN(C)S(=O)(=O)c2ccccc2F)[C@@H](C)CN([C@@H](C)CO)S3(=O)=O)c1 | 14 | -3.7 | i | -2.5
0 | COC(=O)C[C@H]1CC[C@H]2[C@H](COc3ccc(NC(=O)c4cc(C)on4)cc3C(=O)N2C)O1 | -7 | 0.0 | i | -2.0
-4 | O=C1CN(S(=O)(=O)c2ccccc2)C[C@@H]2[C@H](c3ccc(Br)cc3)[C@@H](CO)N12 | -5 | -3.6 | i | 1.2
-4 | COc1ccc(S(=O)(=O)N(C)C[C@@H]2Oc3c(NS(=O)(=O)c4ccc(C)cc4)cccc3C(=O)N([C@@H](C)CO)C[C@H]2C)cc1 | -7 | 3.3 | i | -1.1
-2 | C[C@@H]1CCCCO[C@H](CN(C)S(=O)(=O)c2ccc(F)cc2)[C@H](C)CN([C@@H](C)CO)C(=O)c2cc(NC(=O)c3ccccc3)ccc2O1 | -2 | 1.6 | i | 0.6
5 | CC(=O)N(C)C[C@H]1Oc2ncc(C#Cc3ccccn3)cc2C(=O)N([C@H](C)CO)C[C@@H]1C | 4 | 0.2 | i | -29
4 | CNC[C@@H]1Oc2ccc(NC(=O)Nc3ccc(F)cc3)cc2CC(=O)N([C@H](C)CO)C[C@@H]1C | 0 | 1.6 | i | 3.6
-2 | CN1C(=O)c2cc(NC(=O)NCc3ccccc3)ccc2OC[C@H]2O[C@H](CC(=O)NCC3CCCCC3)CC[C@@H]21 | -16 | 1.9 | i | -14
-58 | O=C(Nc1cc(Cl)cc(Cl)c1)N[C@@H]1CC[C@H](CCNS(=O)(=O)c2cccc(F)c2)O[C@H]1CO | -77 | -15 | i | 0.4
1 | COCCNC(=O)[C@@H]1[C@@H](CO)[C@@H]2Cn3c(ccc(-c4ccccc4F)c3=O)[C@H]1N2S(C)(=O)=O | 7 | -1.7 | i | -0.2
-1 | C[C@H]1CN([C@@H](C)CO)C(=O)c2cccc(NS(=O)(=O)c3cccs3)c2O[C@H]1CN(C)Cc1ccc(-c2ccccc2)cc1 | 0 | -4.2 | i | 0.2
1&3 | C[C@@H]1CN([C@@H](C)CO)C(=O)c2cc(C#Cc3ccccc3)cnc2O[C@@H]1CN(C)Cc1ccccn1 | -1&-5 | -0.2&5.8 | i | 2.8&5.7&11
0 | O=C(C1CCCCC1)N1C[C@H]2[C@@H](c3ccccc31)[C@H](CO)N2C(=O)c1ccccc1F | -11 | -1.9 | i | 0.0
-70 | c1ccc2c(c1)ccc1[nH]c3c(c12)CCCC3 | -78 | -28 | i | -4.1

# Following part
rRNA inh HTS | mol | rRNA inh HTS OD600 | rRNA inh HTS RFP | FGF22 binding | AF4-AF9 inh
21 | Cc1[nH][nH]c(=O)c1C(c1ccc(-c2ccc(C(=O)O)cc2)o1)c1c(C)[nH][nH]c1=O | 13 | -3.8 | i | -5.1
-2 | CCCN(C)C[C@H]1Oc2cc(C#Cc3ccccc3)ccc2S(=O)(=O)N([C@H](C)CO)C[C@H]1C | 0 | 8.4 | i | 8.6
4 | C[C@@H]1CCCCO[C@H](CN(C)C)[C@@H](C)CN([C@@H](C)CO)C(=O)c2cc(NC(=O)Cc3ccccc3)ccc2O1 | -1 | -4.5 | i | -8.3
7 | O=C(C[C@@H]1CC[C@H]2[C@@H](COC[C@H](O)CN2Cc2cc(F)cc(F)c2)O1)NC1CCCC1 | 7 | 4.8 | i | -0.3
0 | COCCNC(=O)C[C@H]1CC[C@@H](NC(=O)NC2CCCC2)[C@H](CO)O1 | 5 | -4.0 | i | 0.5
-5 | Cc1ccc([C@H]2C[C@@H](O)[C@H](n3cc(-c4ccc(F)cc4)nn3)CN2C(=O)C2CCCCC2)cc1 | -41 | -3.0 | i | -0.1
-3 | COCCNC(=O)C[C@H]1C[C@H]2c3cc(NC(=O)CC4CC4)ccc3O[C@H]2[C@@H](CO)O1 | -2 | -4.9 | i | -1.0
-1 | O=S(=O)(Cc1ccccc1)N1CCCCN2[C@@H](CO)[C@H](c3ccc(-c4cccnc4)cc3)[C@@H]2C1 | -12 | -0.6 | i | 0.1
13 | Cc1ccc(NC(=O)CCN2CCN(CCO)CC2)cc1 | 20 | 0.5 | i | 4.0
4 | CCN1C(=O)[C@H]2[C@H]3CN=C(SCc4ccc(C#N)cc4)N3[C@@](CC)(C(=O)OC)[C@H]2C1=O | 8 | -3.7 | · | -0.7
1 | Cc1nc(Cc2ccccc2)sc1CC#N | 4 | 2.3 | i | -2.7
9 | COc1cccc(NC(=O)CN(C)C(=O)CCN2C(=O)C3CC=CCC3C2=O)c1 (configuration not stated) | 9 | 1.0 | i | -1.5
-46 | C[C@H]1CN([C@@H](C)CO)S(=O)(=O)c2ccc(C#CC3CC3)cc2O[C@@H]1CN(C)Cc1cccnc1 | -69 | -7.8 | i | 12
0 | O=C(NCC[C@@H]1CC[C@H](NS(=O)(=O)c2ccccc2F)[C@H](CO)O1)c1ccc(F)cc1 | -6 | -0.4 | i | 0.2
0 | CNC(=O)C[C@H]1CC[C@H]2[C@@H](COC[C@H](O)CN2S(=O)(=O)c2ccc(Oc3ccccc3)cc2)O1 | -3 | -0.1 | i | -1.4
-1 | C[C@@H]1CN([C@@H](C)CO)C(=O)c2cc(NS(=O)(=O)c3ccccc3)ccc2O[C@@H]1CN(C)Cc1ccc(C(F)(F)F)cc1 | -20 | 2.4 | i | 4.1
-1 | C[C@@H]1CN([C@@H](C)CO)C(=O)c2cccc(NS(=O)(=O)c3ccc(F)cc3)c2O[C@@H]1CN(C)C(=O)Nc1cccc2ccccc12 | -3 | 4.1 | i | 1.6
-5 | CN1OC[C@@H]2CN(C(=O)c3cccc4ccccc34)[C@H](c3ccccc3Br)C[C@@H]21 | -4 | 4.2 | i | 5.7
2 | C[C@@H]1CN([C@H](C)CO)C(=O)c2cc(NS(=O)(=O)c3ccccc3)ccc2O[C@@H]1CN(C)C(=O)Nc1ccc2c(c1)OCO2 | 5 | 0.8 | i | -3.7

# An excerpt; rates above refer to the full screens.
